High-throughput results as filed in PubChem BioAssay.
HPGD block: blocks human HPGD enzyme activity. 150,000 compounds, 4.3% hits. Potency, µM, inactives show at the top dose activity change, negative = inhibition, actives largely listed as inhibitors. P15428. purified HPGD, NADH fluorescence kinetic, PGE2 substrate. AID 894; active = well fitted inhibition curve with a large enough effect (not every such curve was filed as active); inconclusive = small, poorly fitted or top-dose-only effect, or another doubt; inactive = no such curve, though single readings can be large or run the other way;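 note: top concentration of the series not given in the record; plate controls included wells without enzyme; inactives centre near -10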
Target sequence (P15428 whole entry, looked up): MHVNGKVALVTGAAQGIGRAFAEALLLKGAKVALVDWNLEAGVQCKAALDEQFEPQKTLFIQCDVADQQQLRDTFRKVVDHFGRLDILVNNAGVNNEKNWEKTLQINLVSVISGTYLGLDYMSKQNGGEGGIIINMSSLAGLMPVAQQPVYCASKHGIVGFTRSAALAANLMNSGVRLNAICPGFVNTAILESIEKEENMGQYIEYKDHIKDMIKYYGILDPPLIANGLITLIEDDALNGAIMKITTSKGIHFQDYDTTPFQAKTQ
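20 nM HPGD preincubated 15 min at room temperature with compound in 50 mM Tris-HCl pH 8, 0.01% Tween 20. Started with 1 mM NAD+ and 30 uM prostaglandin E2; NADH fluorescence (360/450 nm) read 5 times over 30-s intervals, last minus first.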
Starred values were filed as active, the others as inactive; u = inconclusive. % is set by controls: 0 for no effect and ±100 for the full control effect; potency is the fitted concentration of half-maximal effect. These rows are one share of the data; the hit share may differ from the screen's.

SMILES | HPGD block
COc1cccc(NC(=O)Cn2c(-c3cncs3)nc3ccccc32)c1 | -20%
Cc1cc(C)cc(NS(=O)(=O)c2ccc3[nH]cc(C(=O)NCc4ccco4)c(=O)c3c2)c1 | 0%
C=CCSc1nnc2nc3c(nn12)c1cc(C)ccc1n3CC=C | -13%
COc1ccc(N=C2S/C(=C\c3cc(C)n(C)c3C)C(=O)N2C)cc1 | -6%
COc1ccc(NC(=O)CCc2nc(-c3ccccc3F)no2)cc1 | -6%
CCN(CC)C(=O)CSc1ncnc2c1nnn2-c1ccc(F)cc1 | -17%
Cc1cc(Cl)nc(NC(=O)CSc2ccc(Cl)cc2)n1 | 0%
O=C(NCc1cccs1)c1cc2c(s1)-c1ccccc1OC2 | u
O=C(NNC(=O)c1ccco1)c1cccc([N+](=O)[O-])c1 | -7%
Cc1ccc(Nc2nc(CSc3nnnn3C)cs2)cc1 | -17%
CN(CC(=O)Nc1nccs1)S(=O)(=O)c1ccc(F)cc1 | -5%
O=C(NC(Cc1c[nH]c2ccccc12)c1nnc2n1CCCCC2)c1ccccc1Cl (stereo not given) | 25µM*

Brought forward from above: 4 compounds, then new ones.
SMILES | HPGD block
O=C(NNC(=O)c1ccco1)c1cccc([N+](=O)[O-])c1 | -7%
Cc1ccc(Nc2nc(CSc3nnnn3C)cs2)cc1 | -17%
CN(CC(=O)Nc1nccs1)S(=O)(=O)c1ccc(F)cc1 | -5%
O=C(NC(Cc1c[nH]c2ccccc12)c1nnc2n1CCCCC2)c1ccccc1Cl (stereo not given) | 25µM*
NC(=S)NNC(=O)C12CC3CC(CC(C3)C1)C2 | -7%
Cc1ccc(NC(=O)c2cc(N3C(=O)C4CC=CCC4C3=O)ccc2N2CCCCC2)cc1 (stereo not given) | u
COc1ccc(C(=O)NNc2ccccc2)cc1OC | u
Cc1ccc(OCc2nc(C#N)c(N3CCCC3)o2)cc1 | -2%
CCNc1ccc(S(=O)(=O)N(C)C)cc1NCC(=O)Nc1ccc(F)c(Cl)c1 | -9%
CC(C)(C)NS(=O)(=O)c1ccc(CCC(=O)O)cc1 | -11%
O=C(NCCOC(=O)c1ccc(C(=O)OCCNC(=O)c2cccnc2)s1)c1cccnc1 | -13%
Cc1c(Cl)cccc1-n1c(SCC(=O)NCc2cccs2)nnc1-c1ccncc1 | -23%
Cc1oc(C(=O)O)cc1CSCc1cc(C(=O)O)c(C)o1 | -19%
COCCn1c(SCC(=O)NCc2ccco2)nc2cccnc21 | -7%
CN(C)c1nc(N2CCOCC2)nc(N(c2ccccc2)c2ccccc2)n1 | -11%
COC(=O)CC1=NN(c2ccccc2)C(=O)/C1=C\c1ccc(OC)cc1 | 14µM*
CCCn1nnnc1SCC(=O)Nc1ccc(F)cc1 | -2%
CCOC(=O)c1ccccc1NC(=O)CSc1nc(N)cc(N)n1 | 0%
Cc1cccc(NC(=O)c2cc3ccccc3o2)c1 | -17%
O=c1c2ccccc2nc(-c2ccco2)n1/N=C/c1ccccc1O | -2%
CCn1c(COc2ccc(Cl)cc2)nnc1SC1CCc2ccccc2C1=O (stereo not given) | -7%
CC(C)C(c1nnnn1C(C)(C)C)N1CCOCC1 (stereo not given) | -7%
COc1ccc(CN2CCNC(=O)C2CC(=O)O)cc1OC (stereo not given) | -13%
CC(NC(=O)c1ccco1)C(c1cccs1)N1CCN(c2ccccc2F)CC1 (stereo not given) | -24%
O=C(NCCCN1CCOCC1)c1ccc(-n2nc(C(F)(F)F)cc2-c2cccs2)cc1 | -5%
Cc1c([N+](=O)[O-])ccc(S(=O)(=O)N2CCC(C(N)=O)CC2)c1C | -7%
O=c1c2ccccc2nc2n1CCCS2 | -7%
CCOC(=O)c1cc(-c2ccccc2)n(CC(=O)Nc2cccc(OC)c2)c1C | -5%

In a second layout: results already given.
| HPGD block | canonical_smiles |
| --- | --- |
| u | O=C(NCc1cccs1)c1cc2c(s1)-c1ccccc1OC2 |
| -7% | O=C(NNC(=O)c1ccco1)c1cccc([N+](=O)[O-])c1 |
| -17% | Cc1ccc(Nc2nc(CSc3nnnn3C)cs2)cc1 |

(further entries)
SMILES | HPGD block
CCOc1ccc(NC(=O)Cc2ccccc2)cc1 | 13µM*
COc1ccc(S(=O)(=O)N2Cc3ccccc3CC2C(=O)O)cc1 (stereo not given) | 1%
CC(C)(C)C1CCc2c(sc3c2C(=O)NC(c2ccco2)N3)C1 (stereo not given) | u
CCOC(=O)CSC1=C(C#N)C(c2sccc2C)C(C(C)=O)=C(C)N1 (stereo not given) | -15%
CCn1c2ccccc2c2cc(NC(=O)c3cccc(OC)c3)ccc21 | u
COc1ccccc1-c1c(C)oc2cc(OCC(=O)OCc3ccccc3)ccc2c1=O | -8%
Oc1ccc(C=Nc2ccc(N3CCOCC3)cc2)c(O)c1 | -13%
Cc1noc(C)c1CSCC(=O)OCC(=O)NC1CCCCC1 | -7%
C=CCn1cc(C(=O)OC)c(=O)c2cc(S(=O)(=O)N3CCC(C)CC3)ccc21 | -7%
CCOC(=O)Cn1nnnc1C(C(C)C)N(Cc1cc2c(C)cc(C)cc2[nH]c1=O)C1CCCC1 (stereo not given) | -24%
CCOC(=O)C1Cc2c([nH]c3ccccc23)C(C)N1 (stereo not given) | -21%
COc1ccc(OC)c(/C=N/NC(=O)CNC(=O)c2ccc(S(=O)(=O)N3CCOCC3)cc2)c1 | -8%
CCCCn1nc2cc(C(=O)NCc3ccc(OC(F)(F)F)cc3)ccc2c1OC | u
Cc1cc(C(=O)NCc2ccccc2F)cs1 | 16µM*
Cc1nn(Cc2ccccc2Cl)c(C)c1NC(=O)c1ccn(C)n1 | 4%
COc1ccc(CNC(=O)CSc2ncn[nH]2)cc1 | -8%
CC(C)(C)c1ccc(C(=O)N2CCC(=O)N(C(COCc3ccccc3)Cc3ccccc3)CC2)cc1 (stereo not given) | -29%
CCOc1ccc(-c2nc(C#N)c(N3CCN(C)CC3)o2)cc1 | u
O=C(NCC(=O)N(Cc1cccs1)C(C(=O)NC1CCCC1)c1ccncc1)c1ccco1 (stereo not given) | -12%
CCC1CCCCN1c1ccc([N+](=O)[O-])cc1/C=N/NC(=O)Cn1c2ccccc2c(=O)c2ccccc21 (stereo not given) | -23%
CN(c1cccc(NC(=O)Cc2ccccc2)c1)S(C)(=O)=O | 1%
N/C(=N\OC(=O)Nc1ccccc1)c1ncc(C(F)(F)F)cc1Cl | -12%
CN(C)c1[nH]c(=O)c(C#N)c2c1CCN2Cc1ccccc1 | 13µM*
CCOc1ccccc1NC(=O)c1ccccc1-c1nc(-c2ccccc2)no1 | -8%
CC(=O)c1cccc(NC(=O)COC(=O)c2cccc(N3C(=O)c4ccccc4C3=O)c2)c1 | -12%
COC(=O)c1ccc(COC(=O)c2ccc(SC)cc2OC)cc1 | -20%
Cc1cc(C)nc(SCc2nnc(SCC(=O)Nc3cc(C(F)(F)F)ccc3Cl)o2)n1 | u
Cc1nnc(SCC(=O)N2CCN(S(=O)(=O)c3ccc(Cl)cc3)CC2)[nH]c1=O | -12%
CC1Cc2ccccc2N1C(=O)c1ccc2c(c1)nnn2C (stereo not given) | -11%
Cc1cc(C)cc(OC(=O)CS(=O)c2ccc(C(F)(F)F)cc2[N+](=O)[O-])c1 (stereo not given) | -13%
CCOC(=O)C1CCN(S(=O)(=O)c2ccc(-c3nc4ccccc4s3)s2)CC1 | u
COc1ccc(C2CC(c3ccccc3)Nc3ncnn32)cc1 (stereo not given) | -18%
Cc1ccc(-c2nc(-c3cccnc3)no2)c(C)c1 | -15%
COc1cc(/C=C/C(=O)c2ccc(C)cc2)ccc1OCC#N | -28%
Cc1cc(=O)oc2ccc(OCC(=O)N3CCc4ccccc43)cc12 | -20%
O=C(c1ccc(Cl)c(Cl)c1)N1CCOCC1 | -24%
CN(C)c1cccc(C(=O)OC(C(=O)Nc2ccc(Cl)cc2C(F)(F)F)c2ccccc2)c1 (stereo not given) | 23%
Cc1ccc(C)c(Cn2c(=O)n(CCC(=O)NCc3ccco3)c(=O)c3ccccc32)c1 | -4%
CN(C)S(=O)(=O)c1ccc(NC(=O)N2CCN(c3cccc(C(F)(F)F)c3)CC2)cc1 | -15%
O=C(CSc1ccc(Cl)cc1)Nc1ncccn1 | -15%
Cc1ccc(-n2nc(-c3cccnc3)cc2C(=O)N2CCOCC2)c(C)c1 | -25%
O=C(c1cccc(COc2ccc(Cl)cc2Cl)c1)N1CCN(c2ccccn2)CC1 | -11%
Cn1c(NCC(O)c2ccccc2)nc2c1c(=O)n(Cc1ccc(Cl)cc1)c(=O)n2C (stereo not given) | -10%
CCCCCS(=O)(=O)CCCCCCCCCCn1c(-c2ccc(O)cc2)c(C)c2cc(O)ccc21 | u
CCOC(=O)c1ccc(-n2c(C)nc3c(cnn3-c3ccccc3C)c2=O)cc1 | -4%
COc1cc(OC)c(NC(=O)c2ccco2)cc1Cl | -3%
CCN(CC)C(=O)C(C)OC(=O)COc1ccc(Cl)cc1Cl (stereo not given) | 0%
O=C(O)Cc1cc(Cl)ccc1O | -7%
CCN1CCN(C(=O)c2cn(CCOC)c(=O)c3c2c2ccccc2n3C)CC1 | u
COc1ccc(CCn2c(C)c(C(C)=O)c3cc(OC(=O)c4ccco4)ccc32)cc1OC | -15%
N=C1c2ccccc2CN1NC(=O)CC12CC3CC(CC(C3)C1)C2 | -4%
CCCCCCCC/C=C\CCCCCCCC(=O)OC[C@H](CO)OC(C)=O | -6%
CCOc1ccc(S(=O)(=O)N2CCN(C(=S)NCc3ccco3)CC2)cc1 | -7%
Nc1cc(C(=O)O)ccc1Nc1ccc(F)c(F)c1 | -12%
Cc1ccc(S(=O)(=O)NC2=C(N3CCN(Cc4ccccc4)CC3)C(=O)c3ccccc3C2=O)cc1 | -11%
O=S(=O)(Cc1ccccc1)NCC1CCCO1 (stereo not given) | -15%
COC(=O)NC1CCC(NC(=O)OC)CC1 (stereo not given) | 7%
C/C(=N\NC(=O)C1CC1c1ccccc1)c1cccs1 (stereo not given) | -3%
O=C(OC1CCOC1=O)c1ccc(S(=O)(=O)N2CCCCCC2)cc1 (stereo not given) | 16µM*
CC(=O)/C(=N\Nc1ccc(Cl)cc1Cl)Sc1cccc2cccnc12 | -26%
Remaining list, next part:
SMILES | HPGD block
CCOC(=O)CCCCC(=O)c1[nH]c(=O)[nH]c1CSCCO | -11%
CCN(CC)C(=O)Cn1nc(C)c2ccccc2c1=O | 0%
CCc1nnc(NS(=O)(=O)c2ccc(NC(=S)Nc3ccc(F)cc3)cc2)s1 | -9%
COc1ccc(C(=O)O/N=C2\CCCc3nonc32)cc1 | 0%
CC(=O)NCCCNc1ccc([N+](=O)[O-])cc1 | -16%
CN(C)c1ncnc2c1NC1=C(S2)C(=NCCCC(=O)O)CC(C)(C)C1 | -14%
COc1ccc(C)cc1NC(=O)C1CCCN1C(=O)OCc1ccccc1 (stereo not given) | -8%
CCCCNC(=O)c1ccccc1NC(=O)CCSc1ccccc1 | u
CCOC(=O)C1=C(C)S/C(=C\N(C)C)C1=O | -28%
CCOC(=O)N1CCN(C(=O)CN(C2CCCCC2)S(=O)(=O)c2c(C)cc(C)cc2C)CC1 | -6%
CC(Nc1nc(N2CCCCC2)nc2ccccc12)c1ccccc1 (stereo not given) | u
COCCCNC(=O)c1nc2c(nnn2Cc2cc(C)ccc2C)c(=O)[nH]1 | 0.45µM*
COC(=O)c1ccccc1NC(=O)CN1CCN(C23CC4CC(CC(C4)C2)C3)CC1 | -13%
O=C(CNCCC1=CCCCC1)Nc1ccc(N2CCCCCC2)cc1 | -11%
CCOC(=O)c1ccc(NC(=O)CC2NCCNC2=O)cc1 (stereo not given) | -5%
CC/C(=N\NC(=O)c1ccoc1C)c1ccc(C)o1 | -25%
CC(C)c1nc(N2CCOCC2)c(C#N)c2c1CCCC2 | u
CCc1cc(C(c2ccccc2OC)N2CCOCC2)c(NC(=O)c2ccccc2)s1 (stereo not given) | -14%
CCCCOc1ccccc1C1NC(=O)NC(C)=C1C(=O)OCc1ccco1 (stereo not given) | -8%
CN1C(=O)C(O)(CC(=O)c2ccc3c(c2)OCO3)c2ccccc21 (stereo not given) | -15%
O=C(N/N=C/c1ccc([N+](=O)[O-])s1)C(O)c1ccccc1 (stereo not given) | u
N#CC1=C(SCc2ccccc2)NC(=O)CC1c1ccccc1 (stereo not given) | -11%
CCOc1ccccc1OCCC(=O)Nc1ccc(F)c(Cl)c1 | 1%
CCC/C(=N\NC(=O)c1ccccc1C)c1ccccc1 | -3%
CCOC(=O)c1oc2c(C)c(O)ccc2c(=O)c1-c1nncn1-c1ccccc1 | 2%
COc1ccc(CCNC(=O)CSc2nnc(CNC(=O)c3ccco3)o2)cc1OC | -6%
O=C(Nc1ccc(Cl)c(Cl)c1)OCc1cncs1 | -39%
Cn1cc(C(=O)N/N=C/C2=C(N3CCOCC3)C(=C\c3ccccc3)/CC2)ccc1=O | -4%
Clc1ccc2nc(C3CCN(Cc4nnnn4C4CCCCC4)CC3)[nH]c2c1 | -3%
COc1cccc(/C=N/n2c(C)nc3ccccc3c2=O)c1O | -13%
CCOC(=O)C1CCN(C(=O)c2sc3nc(-c4ccccc4)cn3c2C)CC1 | -11%
Cc1cc(=O)oc2cc(OCC3CC(c4ccccc4Cl)=NO3)ccc12 (stereo not given) | u
CC(C)(NO)/C(=N/O)c1ccc(Br)cc1 | 0%

Sorted by length of the SMILES (rising): some entries from above.
SMILES | HPGD block
CC(C)(NO)/C(=N/O)c1ccc(Br)cc1 | 0%
O=C(Nc1ccc(Cl)c(Cl)c1)OCc1cncs1 | -39%
Clc1ccc2nc(C3CCN(Cc4nnnn4C4CCCCC4)CC3)[nH]c2c1 | -3%
